# Screens from PubChem.
# CBX7 AlphaScr: inhibitors of human CBX7 binding to H3K27me3 peptide; O95931; AlphaScreen His6-CBX7 / biotin-H3K27me3 peptide binding; active compounds read low; normalised signal (fraction of DMSO) (test concentration not listed); hit rate 1.1% among 66,000; in the data active means normalised signal below about 0.5;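 further: 100 nL library stock added to about 20 µL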
# Target sequence (O95931 whole entry, looked up): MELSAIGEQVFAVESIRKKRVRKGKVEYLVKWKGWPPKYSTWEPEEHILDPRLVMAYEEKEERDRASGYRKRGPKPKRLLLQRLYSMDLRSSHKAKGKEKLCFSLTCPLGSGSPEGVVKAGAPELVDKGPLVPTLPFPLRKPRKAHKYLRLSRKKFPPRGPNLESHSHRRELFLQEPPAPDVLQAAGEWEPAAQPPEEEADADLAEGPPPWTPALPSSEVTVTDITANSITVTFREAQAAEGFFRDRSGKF
# CBX7 AlphaScr z-score: recorded beside CBX7 AlphaScr, whose call it bears; z-score; measured here: z-score of CBX7 signal; some inactives read as strong as hits; reference of the scale not given here;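 same signal on another scale; lower means less binding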
# The depositor's hits bear a star. This is a subset; rates above refer to the full screens.
SMILES,CBX7 AlphaScr,CBX7 AlphaScr z-score
O=C(NCc1ccccn1)C(=O)Nc1ccccc1F,1.03,0.375
O=C(Nc1nnc(CCS(=O)(=O)c2ccc(Cl)cc2)s1)c1cccs1,1.12,1.31
Cc1c(C(=O)Nc2ccc3c(c2)OCO3)sc2nc(-c3ccccc3)cn12,1.05,1.01
COc1ccc(CC(=O)Nc2c3c(nn2-c2cccc(C)c2C)CSC3)cc1,0.972,-0.775
COc1ccc(CCNC(=O)CSCc2nc(-c3ccccc3F)oc2C)cc1OC,1.02,0.429
O=C(C1CC1)N1CCc2cc(Br)cc(S(=O)(=O)NCCc3ccccc3)c21,1.01,0.383
CCN(CC)C(=O)c1c[nH]c2ccc(S(=O)(=O)Nc3cc(C)cc(C)c3)cc2c1=O,0.901,-0.43
Cc1oc(-c2cccc(Cl)c2)nc1CN1CCC(C(=O)NCc2ccccc2)CC1,1.13,1.09
O=C(CN1C(=O)COc2ccc(S(=O)(=O)N3CCOCC3)cc21)NCc1ccc(F)cc1,1.05,1.7
O=C(C1CC1)N1CCc2cc(S(=O)(=O)NC3CCCc4ccccc43)ccc21 (stereo not drawn),0.972,-0.323
CCC(C)[C@@H](C(=O)Nc1cccc(F)c1)N1Cc2ccccc2C1=O (stereo partly drawn),0.953,-0.837
CCCCNC(=O)C1CCC(=O)N1C1CCCC1 (stereo not drawn),1.03,0.881
CN1CCN(C(=O)c2ccc3c(=O)n4c(nc3c2)CCCCC4)CC1,1.01,0.173
Cc1cccc(N(C(=O)c2ccc(-n3cnnn3)cc2)C2(C(=O)Nc3ccccc3C)CCCCC2)c1,0.823,-4.78
CC1CC(C)CN(CCCNC(=O)c2cc3c(-c4ccc(Cl)cc4)nn(C)c3s2)C1 (stereo not drawn),1.09,0.381

# For convenience, 6 of the compounds above.
SMILES,CBX7 AlphaScr,CBX7 AlphaScr z-score
O=C(C1CC1)N1CCc2cc(S(=O)(=O)NC3CCCc4ccccc43)ccc21 (stereo not drawn),0.972,-0.323
CCC(C)[C@@H](C(=O)Nc1cccc(F)c1)N1Cc2ccccc2C1=O (stereo partly drawn),0.953,-0.837
CCCCNC(=O)C1CCC(=O)N1C1CCCC1 (stereo not drawn),1.03,0.881
CN1CCN(C(=O)c2ccc3c(=O)n4c(nc3c2)CCCCC4)CC1,1.01,0.173
Cc1cccc(N(C(=O)c2ccc(-n3cnnn3)cc2)C2(C(=O)Nc3ccccc3C)CCCCC2)c1,0.823,-4.78
CC1CC(C)CN(CCCNC(=O)c2cc3c(-c4ccc(Cl)cc4)nn(C)c3s2)C1 (stereo not drawn),1.09,0.381

# (next part)
SMILES,CBX7 AlphaScr,CBX7 AlphaScr z-score
CCCCCc1ccc(-c2ccc(=O)[nH]n2)cc1,0.973,-0.529
COc1cc(C)nc(N(CC(N)=O)S(=O)(=O)c2ccc(C)cc2)n1,1.33,1.17
O=c1oc2c3c4c(cc2c(C(F)(F)F)c1CCBr)CCCN4CCC3,1.44,8.49
CCC(Cc1ccccc1)NC(=O)c1ccc2c(c1)NC(=O)C1CCCN21 (stereo not drawn),0.807,-0.851
CCN1CCCC1CNC(=O)C(C)n1ncc2ccccc21 (stereo not drawn),1.09,1.65
Cc1cc(C(=O)NCc2ccccn2)c2ccccc2n1,0.927,-3.24
Cc1ccc(-c2nc3ccccn3c2Nc2ccc3c(c2)OCCO3)s1,1.01,0.146
CC(C)OCCCNC(=O)c1cccc2c1C(=O)N(C1CCCCC1)C2,0.927,-1.36
COc1ccccc1CNC(=O)C1CCC(=O)N1C1CCCCCCC1 (stereo not drawn),1.07,2.47
CCCCCc1nnc(NC(=O)c2ccc(C)cc2)s1,1.01,0.518
O=C(CCCN1C(=O)CSc2ncccc21)N1CCN(c2ccccc2)CC1,1.08,0.202
Cc1ccc2c(n1)sc1c(=O)[nH]c(C)nc12,1,0.0726
CC1(C)CC(=O)N(CC(=O)Nc2ccc(Cc3ccncc3)cc2)c2ccccc2S1(=O)=O,0.974,-0.838
COc1ccc(Cc2nnc(NC(=O)Cc3ccc(C)cc3)s2)cc1,0.901,-1.17
c1ccc(Cn2c(-c3cccs3)nc3ccccc32)cc1,1.07,1.14

# One compound at a time, from the list above.
# Profile of COc1ccc(Cc2nnc(NC(=O)Cc3ccc(C)cc3)s2)cc1 : CBX7 AlphaScr: 0.901; CBX7 AlphaScr z-score: -1.17
# Profile of CC(C)OCCCNC(=O)c1cccc2c1C(=O)N(C1CCCCC1)C2 : CBX7 AlphaScr: 0.927; CBX7 AlphaScr z-score: -1.36

# Next section
SMILES,CBX7 AlphaScr,CBX7 AlphaScr z-score
Cc1ccc(-c2csc(Cc3csc(-c4ccc(C)cc4)n3)n2)cc1,1.29,2.79
CCCCNC(=O)c1sc2ncn(CC(=O)NCCC)c(=O)c2c1C,0.98,-0.68
O=C(O)CCC(=O)Nc1cccc(-c2cn3ccccc3n2)c1,1.14,1.48
O=C1CN(C(=O)c2c(F)cccc2F)C(c2ccccc2)c2cc(Br)ccc2N1 (stereo not drawn),0.687,-2.99
COc1ccc2c(c1)c(=O)c(S(=O)(=O)c1ccccc1)cn2CC(=O)Nc1ccc(C)cc1,0.962,-0.544
COc1ccccc1NC(=O)CSc1nc2ccc(N3C(=O)c4ccccc4C3=O)cc2s1,0.967,-1.27
COc1ccc(CC(=O)Nc2ccc(-c3noc(-c4cccc(OC)c4)n3)cc2)cc1,1.05,0.511
CCOc1ccc2nc(N3CCCC(C(=O)NCCCc4ccccc4)C3)sc2c1 (stereo not drawn),0.982,-0.474
CC1CCN(S(=O)(=O)c2ccc3c(c2)N(CC(=O)N2CCOCC2)C(=O)CO3)CC1,0.948,-0.812
O=C(CCCCn1c(=O)[nH]c2ccccc2c1=O)N1CCN(c2cccc(Cl)c2)CC1,0.592,-1.14
O=C(Cn1nc(-c2ccc(Cl)cc2)c2ccccc2c1=O)Nc1cccc2ccccc12,0.909,-1.04
Cc1ccccc1C(=O)NCCN=C1NS(=O)(=O)c2ccccc21,1.07,1.01
COCCCNC(=O)c1ccc2c(c1)NC(=O)C1CCCN21 (stereo not drawn),1.03,0.11
Cc1ccc(-c2nc3ccccn3c2NC(=O)c2ccc(Cl)cc2)cc1,0.992,-0.202
COc1ccc(C2NC(c3ccc(OC)c(OC)c3)C(C)C(=O)C2C)cc1OC (stereo not drawn),0.951,-0.559
CCN(CC)S(=O)(=O)c1ccc2oc(C(=O)N(C)Cc3ccccc3)c(C)c2c1,0.955,-0.453
CCc1ccccc1NC(=O)CCc1nc2cccnc2n1Cc1ccc(OC)cc1,1.01,0.411
CCn1c(COc2cccc3cccnc23)nnc1SCC(=O)O,1,0.071
CCn1cc(C(=O)N2CCCCC2)c2cc(OC)c(OC)cc2c1=O,1.13,1.11
COc1ccc(-c2cc(C(=O)N3CCOCC3)no2)cc1OC,1.18,1.42
O=C(COc1ccc(Cl)cc1)Nc1nc(-c2cccc3ccccc23)cs1,0.938,-0.422
CC(C)CCNC(=O)c1ccc2c(c1)ncn2C1CCCC1,1.06,0.696
Cc1cccc(N(C)C(=O)C2CCCN(S(=O)(=O)c3c(C)noc3C)C2)c1 (stereo not drawn),1,0.0333
Cc1cc(N2CCN(C)CC2)nc2ccc(NC(=O)Cc3cccc(C(F)(F)F)c3)cc12,1.03,1.12
O=C(CSc1nnnn1-c1ccc(F)cc1F)Nc1ccccc1F,1.04,1.06
Cc1cccc(C)c1NC(=O)C1CCCN(S(=O)(=O)c2cccc3cccnc23)C1 (stereo not drawn),0.925,-1.36
CC(CC(=O)NCc1ccc(Cl)cc1)CC1=NS(=O)(=O)c2ccccc2N1 (stereo not drawn),1.02,0.235
CCCOc1ccc(C2C(=O)N(C3CCCCCC3)CC(=O)N2CCCOCC)cc1OC (stereo not drawn),1.06,0.252
COc1cccc(N2C(=O)N(c3ccccc3Cl)C3CS(=O)(=O)CC32)c1 (stereo not drawn),0.984,-0.291
c1ccc2[nH]c(SCc3cn4ccccc4n3)nc2c1,0.997,-0.0595

# An excerpt from above in order of heavy-atom count, largest number first.
SMILES,CBX7 AlphaScr,CBX7 AlphaScr z-score
CCCOc1ccc(C2C(=O)N(C3CCCCCC3)CC(=O)N2CCCOCC)cc1OC (stereo not drawn),1.06,0.252
COc1cccc(N2C(=O)N(c3ccccc3Cl)C3CS(=O)(=O)CC32)c1 (stereo not drawn),0.984,-0.291
CCn1c(COc2cccc3cccnc23)nnc1SCC(=O)O,1,0.071

# Further compounds follow.
SMILES,CBX7 AlphaScr,CBX7 AlphaScr z-score
O=C(c1ccc(Cn2c(=O)[nH]c3ccccc3c2=O)cc1)N1CCN(c2ccccn2)CC1,0.98,-0.056
Cc1[nH]c2ccccc2c(=O)c1CN1CCCCC1,1.02,0.406
COc1ccc(S(=O)(=O)NCCc2c(C)[nH]c3ccc(OC(F)(F)F)cc23)cc1C,0.916,-0.0838
Cc1csc2ncc(C(=O)Nc3ccc(F)c(Cl)c3)c(=O)n12,1.04,0.951
COc1ccc(NC(=O)N(C2CCCCC2)C(C)c2cccnc2)c(OC)c1 (stereo not drawn),0.93,-1.73
O=C(Nc1cnn(Cc2ccc(F)cc2)c1)c1cnccn1,0.987,-0.331
CCCOc1c(OC)cccc1C1CC(=O)NC2=C1C(=O)CC(C)(C)C2 (stereo not drawn),1.13,0.834
COc1cc2c(c(OC)c1)C(c1cc(OC)c(OC)cc1Br)CC(=O)N2 (stereo not drawn),0.975,-0.32
O=C(COc1nsnc1N1CCOCC1)Nc1ccccc1Cl,1.03,0.249
CCCCNC(=O)c1cnn2c(C)c(Cc3ccc(Cl)cc3)c(C)nc12,0.991,-0.347
COc1ccc(CNC(=O)CN2C(=O)COc3ccccc32)c(OC)c1,1.03,1.14
Cc1cc(C)cc(C(=O)Nc2cccc(-c3nc4ncccc4o3)c2)c1,1.22,3.43
Cc1ccc(CN2C(=O)C(C)(C)N(C(=O)c3ccc(Cl)cc3)c3ccccc32)c(C)c1,1.19,5.46
CCOC(=O)c1cc(-c2ccccc2)n(CCC(=O)Nc2ccc(Br)c(C)c2)c1C,1,0.0251
Cc1cccc(C2CC(=O)Nc3cc4c(cc32)OCO4)c1 (stereo not drawn),1.01,0.432
COC(=O)c1ccccc1NC(=O)c1ccc2c(=O)n3c(nc2c1)CCCCC3,1.03,0.0417
Cc1ccc(NC(=O)CCc2nnc3ccc(N4CCC(C(N)=O)CC4)nn23)cc1,1.07,1.89
COc1ccc(C2C(Oc3ccccc3C)C(=O)N2c2ccc(C)c(Cl)c2)cc1OC (stereo not drawn),0.962,-1.46
CCOc1ccc(C(=O)Nc2cccc(-c3nc4cc(C)ccc4o3)c2)cc1Cl,1.09,1.41
Cc1cccc(C)c1Nc1c(-c2ccccn2)nc2ccccn12,0.234*,-19.3*
CCC(C(=O)NCc1ccccc1Cl)n1ncc2ccccc21 (stereo not drawn),1.13,2.4
COc1ccc(NC(=O)C2c3cc(OC)c(OC)cc3C(=O)N(C)C2c2ccccc2F)cc1OC (stereo not drawn),1.32,4.07
CCC(=O)N1CCc2cc(S(=O)(=O)Nc3ccccc3C)ccc21,1.09,0.356
CN(CCc1ccccn1)c1ncnc2c1cnn2-c1ccccc1,0.961,-0.615
CCN(CC)S(=O)(=O)c1ccc(NC(=O)c2cc3ccccn3n2)cc1,0.914,-1.69
O=C(NCCC1=CCCCC1)c1ccc2c(c1)N(Cc1ccccc1)C(=O)CS2,0.977,-0.299
COc1ccc(N2CCN(C(c3cccs3)C(C)NC(=O)c3cccc(OC)c3)CC2)cc1 (stereo not drawn),0.766,-5.68
CCn1nnnc1-c1ccc(OC)c(S(=O)(=O)Nc2ccc(Br)cc2)c1,0.95,-0.64
O=C1CN(C(=O)c2cccs2)C(c2ccc(F)cc2)c2cc(Br)ccc2N1 (stereo not drawn),0.891,-2.24
Cc1ccc(CNC(=O)CCN2C(=O)COc3ccccc32)cc1,1.01,0.152
Cc1cccc(N(C)C(=O)c2ccc(CNc3c(N4CCC(C)CC4)c(=O)c3=O)cc2)c1,0.987,-0.515
CCC(C)NC(=O)c1ccc2c(c1)N(Cc1ccc(Cl)cc1)CCS2 (stereo not drawn),1.08,0.912
O=C(CSc1nnc(CNC(=O)c2ccccc2F)o1)Nc1nc2ccccc2s1,1.01,0.407
CCOC(=O)c1ccc(NC(=O)c2ccc3c(=O)n4c(nc3c2)CCCCC4)cc1,1.02,0.359
Cc1cc(C)cc(-n2cnc3cc(C(=O)NC4CCCC4)ccc32)c1,0.843,-2.71
Cc1cccc(CSc2nnc(Cc3cc(=O)[nH]c(=O)[nH]3)n2-c2cc(C)ccc2C)c1,1.25,0.52
O=C(CSc1oc(-c2cccs2)nc1S(=O)(=O)c1ccc(F)cc1)NCC1CCCO1 (stereo not drawn),0.993,-0.0114
Cc1ccccc1-n1nc2c(c1NC(=O)C1CC1)CS(=O)(=O)C2,1.04,0.895
Cc1ccc(-c2ccc(=O)n(CC(=O)NCCCN(CC(C)C)CC(C)C)n2)cc1,1.06,2.65
CCOC(=O)c1cc(-c2ccccc2)n(CCC(=O)NCCCc2ccccc2)c1C,0.959,-1.22
Cc1ccc(Nc2nc3nonc3nc2NC2CCCCC2)cc1C,0.762,-3.01
Cn1c(C(=O)N2CCC(C(=O)NC(=O)C3CCNCC3)CC2)cc2sccc21,1,0.0134
Clc1cccc(N2CCN(c3nc(Cc4ccccc4)nc4sc5c(c34)CCCC5)CC2)c1,0.953,-0.0814
Cc1ccc(Cl)cc1N1CCN(S(=O)(=O)c2c(C)noc2C)CC1,1.06,2.8
O=C(CCCOc1ccccc1)Nc1nc(-c2ccccc2)cs1,0.981,-0.431
CCOC(=O)c1cnc2ccc(OC)cc2c1NCCc1ccc(OC)c(OC)c1,1.06,1.37
COc1ccc(NC(=O)NCCN2CCN(c3cccc(C)c3C)CC2)cc1,1.06,0.441
CCN(CC)c1nc(C)nc2sc(C(=O)Nc3cccc(C(F)(F)F)c3)c(C)c12,0.97,-0.806
CCN(CCCNC(=O)C1CC(=O)N(CCc2ccccc2)C1)c1cccc(C)c1 (stereo not drawn),0.991,-0.228
Cc1ccc(NC(=O)c2cnn(-c3ccc(C)c(C)c3)c2C2CCNCC2)cc1,1.05,0.888
CC(C)CCNC(=O)C1CCN(c2nc3cc(Cl)ccc3s2)CC1,1.18,7.16
CCOC(=O)c1sc(NC(=O)c2ccc(S(=O)(=O)N(C)C)cc2)nc1-c1ccccc1,1.04,0.399
